Bioassay records: PubChem, National Center for Advancing Translational Sciences (NCATS)
D2 ag: activates the human D2 dopamine receptor | P14416 | DiscoveRx PathHunter D2 beta-arrestin, luminescence, 90 min; 100% = 57 uM dopamine signal | activation, % (no concentration beside the values) | 0.084% of 360,000 active | AID 624465; in the data active = activation above about 40%; inconclusive = about 15% to 40%; inactive = below about 15%; also: compound concentration not given in the record; the text of the record calls up to 30% inactive
Target sequence (P14416 whole entry, looked up): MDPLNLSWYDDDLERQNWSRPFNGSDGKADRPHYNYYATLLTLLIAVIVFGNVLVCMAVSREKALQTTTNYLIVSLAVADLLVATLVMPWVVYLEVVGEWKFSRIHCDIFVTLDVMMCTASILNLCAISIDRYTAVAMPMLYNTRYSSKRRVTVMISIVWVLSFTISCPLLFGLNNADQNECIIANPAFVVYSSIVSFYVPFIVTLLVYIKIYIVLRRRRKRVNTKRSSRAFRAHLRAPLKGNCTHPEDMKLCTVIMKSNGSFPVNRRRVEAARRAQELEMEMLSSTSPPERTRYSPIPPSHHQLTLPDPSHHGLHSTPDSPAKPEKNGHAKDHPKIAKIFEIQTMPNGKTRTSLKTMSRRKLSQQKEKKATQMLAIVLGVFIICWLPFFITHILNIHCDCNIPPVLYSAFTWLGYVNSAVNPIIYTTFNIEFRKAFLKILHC
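DiscoveRx PathHunter D2 beta-arrestin cells (2,100/well) attached overnight, then compound-stimulated 90 min at 37 C in HBSS/10 mM HEPES/0.1% Tween-20 buffer; beta-galactosidase complementation read by luminescence after 1 h at ambient temperature. Dopamine 57 uM final (EC100) as control.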
gsp agonist: gsp mutant agonism; gsp mutant cells, cAMP HTRF, 30 min; control for the full effect not named in the record; Potency, µM (doses to about 76.9 µM), without a hit: at the top dose activation (cAMP increase), hits mostly activators; 0.13% of 340,000 active; AID 624287; active = well fitted activation curve with a large enough effect; inconclusive = small, poorly fitted or top-dose-only effect, or another doubt; inactive = no such curve, though single readings can be large or run the other way; cell line not stated here;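 also: phosphodiesterase inhibitor Ro 20-1724 added with compounds to block cAMP breakdown; potency is read from the fitted curve at half-maximal effect; nearly all actives have a fitted effect of over 60% in size; about a fifth of the inactives were tested at one dose only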
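Cells in DMEM/10% FBS with G418 were pretreated with compounds in DMSO plus […] (300 uM stock) for 30 min at 37C. cAMP was measured by HTRF (cAMP-d2 plus anti-cAMP antibody-K) after 30 min at room temperature.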
Six1-Eya2 blk: blocks human Six1 binding to Eya2; AlphaScreen GST-Six1/His-Eya2 binding, biochemical; hits give low values; control for the full effect not named in the record; activity change, % (no concentration beside the values); 0.56% of 360,000 active; in the data active = activity change below about -65%; inconclusive = about -30% to -65%; inactive = above about -30%; also: % is scaled to controls: 0 for no effect and ±100 for the full control effect; compound concentration not given in the record
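Compounds are tested against tagged Six1 and Eya2 proteins bridged by glutathione donor and nickel acceptor beads; after a one-hour incubation at 37 °C without light, AlphaScreen emission is recorded.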
D2 potentiator: positive allosteric modulators of human D2 dopamine receptor; P14416; DiscoveRx D2 beta-arrestin cells, luminescence, 90 min; 100% = 57 uM dopamine signal; potentiation, % (test concentration not listed); 0.23% of 360,000 active; AID 624464; active = potentiation of 50% or more; inconclusive = 30% to 50%; inactive = 30% or less;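 also: compound concentration not given in the record; tested on top of an EC20 dose of dopamine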
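PathHunter D2 cells, attached overnight at 37 deg C, received compound in DMSO plus dopamine at EC20 (50 nM final) for 90 min at 37 deg C. Beta-arrestin recruitment was read as luminescence after 1 h with detection reagent at ambient temperature.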
CtBP-E1A inh: inhibitors of CtBP/E1A interaction; AlphaScreen GST-E1A/His-CtBP binding, 1536-well; hits give low values; control for the full effect not named in the record; activity change, % (concentration not given with the values); 0.49% of 340,000 active; in the data active means activity change below about -65%; inconclusive means about -30% to -65%; inactive means above about -30%; also: % is scaled to controls: 0 for no effect and ±100 for the full control effect
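AlphaScreen with 125 nM GST-E1A and 125 nM His-CtBP (5X stocks) in Tris pH 8.0, 300 mM NaCl, BSA, Tween 20, TCEP. Compounds preincubated 2 h at 37 deg C, then glutathione donor/nickel acceptor beads added for 1 h at 37 deg C in dark.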
gsp antagonist: gsp mutant antagonism; gsp-mutant cells, cAMP HTRF, 30 min; control for the full effect not named in the record; Potency, µM (series often up to 76.9 µM), without a hit: at the top dose activity change, negative = inhibition, hits mostly inhibitors; 0.4% of 340,000 active; active = falling curve of any shape with a large fitted effect; inconclusive = falling curve, mostly with a smaller effect; inactive = flat or rising curve; cell line not stated here;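 also: intracellular cAMP measured with PDE inhibitor Ro 20-1724 present during compound exposure; potency is read from the fitted curve at half-maximal effect; % is scaled to controls: 0 for no effect and ±100 for the full control effect; nearly all actives have a fitted effect of over 65% in size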
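Cells in G418 medium, seeded 16-24 h, 37C; buffer exchange to DPBS + 1 mM CaCl2, 0.5 mM MgCl2, 0.05% BSA; cpds in DMSO + […] (300 uM stock), 30 min 37C; HTRF cAMP detection.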
* marks the source's active call; other numbers are inactive results; ? = inconclusive; . = no result given; [ ] = remark or other dose.

entry	SMILES	D2 ag	gsp agonist	Six1-Eya2 blk	D2 potentiator	CtBP-E1A inh	gsp antagonist
1	COc1cccc(CNC(=O)CCC2CCCN(Cc3cc4ccccc4o3)C2)c1 (configuration not stated)	-1.3	20%	-13	-22	-7	-3%
2	COc1ccc(OCc2cc(C(=O)N3CCOCC3)no2)c(Cl)c1	-0.3	?	5	-1	4	7%
3	Cc1ccc(SCC(=O)N(C)C2CCS(=O)(=O)C2)cc1 (configuration not stated)	-3.7	-26%	7	-5	10	5%
4	C=CCn1c(SCC(=O)N2CC(=O)Nc3ccccc32)nc2scc(-c3cccs3)c2c1=O	-1.1	-45%[inhibitor]	-13	18	-11	-6%
5	COc1ccc(C(CNC(=O)CCNC(=O)c2ccccc2Cl)N2CCCC2)cc1 (configuration not stated)	3.8	-4%	2	-4	1	9%
6	COc1ccc(C2C(C(=O)c3cccs3)=C(O)C(=O)N2CCN2CCOCC2)c(OC)c1 (configuration not stated)	-0.2	?	-6	-15	-3	-4%
7	CC(=O)NC1=NN(C(C)=O)C(c2cccc([N+](=O)[O-])c2)S1 (configuration not stated)	-6.7	27%	7	-7	.	0%
8	Cc1cc(C(=O)NC2CCCN(Cc3ccc(Cl)cc3)C2)no1 (configuration not stated)	-1.5	?	0	-16	4	-13%
9	COc1ccc(OCCOc2ccc(N(C)S(=O)(=O)c3ccccc3)cc2)cc1	-6.9	13%	1	-4	-13	-22%
10	COc1ccc(C(=O)/C=C/N2CCCCC2)cc1OC	-1.7	-6%	-8	-14	3	-2%
11	CN1C(=O)N(C)C2(c3ccccc3)Nn3c(s/c(=C/c4ccco4)c3=O)=NC12c1ccccc1 (configuration not stated)	-2.3	-94%[inhibitor]	-2	3	-3	3%
12	CCC(C)N=CC1=C(O)C(C(=O)OC)C(C)(C)CC1=O (configuration not stated)	-1.9	-53%[inhibitor]	-4	-21	3	6%
13	C=CCNS(=O)(=O)c1cccc2cc(C(=O)O)c(O)cc12	-1.7	?	-1	-18	5	11%
14	COc1ccc(C(=O)COC(=O)c2sc(C)nc2C)cc1OC	-2.5	-4%	-4	-1	.	0%
15	O=C1N=c2ccccc2=C1c1c(O)[nH]c2c(C(F)(F)F)cccc12	-2.5	-2%[15.4 µM]	3	-19	3	12%
16	COc1ccc(C2=NN(CN3C(=O)C(=O)c4ccccc43)C(c3ccc(OC)cc3)C2)cc1 (configuration not stated)	-8.9	-31%[inhibitor]	-7	-23	.	-10%
17	CC1CCN(S(=O)C23CC4CC(CC(C4)C2)C3)CC1 (configuration not stated)	-2.5	-23%[15.4 µM]	7	-8	3	10%
18	Cc1ccc2ncnc(Oc3ncccc3[N+](=O)[O-])c2c1	1.1	3%	-1	1	-4	13%
19	Cc1ccc(-n2cc(CN3CCNC(=O)CC3)c(-c3cccc(C)c3)n2)cc1	-1.1	-4%[15.4 µM]	-7	-12	-2	?
20	CCNC(=S)NNC(=O)c1csc(C)c1	-4.1	-16%	-2	-9	-11	11%
21	Cc1c(C(=O)Nc2ccc(Cl)cc2)c2ccccn2c1C(=O)c1ccccc1	-0.8	3%	9	-8	5	22%
22	O=C(COc1cc(O)c2c(=O)cc(-c3ccccc3)oc2c1)c1ccc(F)cc1	0.0	-11%	0	-17	6	-8%
23	Cc1cccc(-n2c(C)nc3cc(C(=O)NCCN4CCOCC4)ccc32)c1	-2.1	-5%	-3	-10	-6	.
24	C[C@H]1CN([C@@H](C)CO)C(=O)CCCn2cc(nn2)CO[C@@H]1CN(C)S(=O)(=O)c1ccc(-c2ccccc2)cc1	-3.0	0%	-11	-1	1	.
25	Cc1ccc2c(=O)n3c(nc2c1)C(CC(C)C)NC(=O)c1cccnc1-3 (configuration not stated)	-7.4	-57%[inhibitor]	-5	-3	-3	.
26	O=C1CCc2cc(S(=O)(=O)N3CCN(C(=O)c4ccco4)CC3)ccc2N1	1.0	5%	1	-8	0	-8%
27	COc1ccccc1C(=O)NC(=O)COC(=O)c1ccc([N+](=O)[O-])cc1	6.9	6%	-1	7	-14	7%
28	CCCCc1cc(=O)oc2cc(C)cc(OCC(=O)NCc3ccncc3)c12	-4.3	?	0	1	-11	-4%
29	O=C(N/N=C/c1ccco1)c1cc(-c2ccccc2)nc2ccccc12	-3.3	?	-5	-35	-27	-8%
30	Cn1c(=O)c2c(nc(SCCCC#N)n2Cc2ccccc2F)n(C)c1=O	0.4	?	1	-1	8	-4%
31	CC1CCN(C(=O)CNC(=O)c2ccc(Br)o2)CC1	-3.4	-34%	12	-1	19	0%
32	Cc1ccc(-c2nnc(Nc3ccc(OCC(N)=O)cc3)c3ccccc23)cc1S(N)(=O)=O	-1.8	12%	-22	2	-21	3%
33	COc1ccc(OCC(=O)Nc2c3c(nn2-c2ccccc2)CS(=O)(=O)C3)cc1	1.8	13%[15.4 µM]	0	30	-3	-1%
34	CC(C)(C)OC(=O)C[C@@H]1C/C=C\C[C@H](CC(=O)N[C@H](CO)Cc2ccccc2)C(=O)N[C@H](Cc2ccccc2)COC1=O	2.8	-18%	-5	12	.	-8%
35	CCN1CCCC1CNC(=O)CCc1nc(-c2ccc(C)cc2)no1 (configuration not stated)	-2.2	-26%	12	11	22	4%
36	CCOC(=O)c1cccc(NC(=O)c2ccc(N(C)C)cc2)c1	-0.8	13%	-15	-30	-9	-26%

Given with two lines to a compound: entries from further up
Screens in order: D2 ag	gsp agonist	Six1-Eya2 blk	D2 potentiator	CtBP-E1A inh	gsp antagonist
13. C=CCNS(=O)(=O)c1cccc2cc(C(=O)O)c(O)cc12
→ -1.7	?	-1	-18	5	11%
14. COc1ccc(C(=O)COC(=O)c2sc(C)nc2C)cc1OC
→ -2.5	-4%	-4	-1	.	0%

The listing continues:
entry	SMILES	D2 ag	gsp agonist	Six1-Eya2 blk	D2 potentiator	CtBP-E1A inh	gsp antagonist
37	O=C(CCN1C(=O)[C@@H]2Cc3ccccc3CN2C1=O)N[C@@H](Cc1ccccc1)C(=O)O	0.5	.	2	-2	7	13%
38	CCOc1ccc2nc(NC(=O)Nc3ccccc3)sc2c1	-0.6	-2%	-1	12	0	-16%
39	COc1ccccc1CNC(=O)c1cc(C(=O)CC(C)C)c[nH]1	1.3	-4%	5	-2	.	-13%
40	COCCC(=O)N1CCC(Oc2ccc(C(=O)NCCCC3CCCC3)cc2)CC1	-2.2	-14%	23	-19	0	-12%
41	Cn1nc(-c2ccccc2)c(-c2nc(-c3cccc(C(F)(F)F)c3)no2)c1Cl	-4.8	-26%	-4	13	12	-10%
42	COc1ccc(OCC(=O)Nc2cc3oc4ccccc4c3cc2OC)cc1	-2.8	-5%[15.4 µM]	3	-6	3	1%
43	CCOC(=O)c1cccc(S(=O)(=O)N(CCO)Cc2cc3cc(OC)ccc3[nH]c2=O)c1	-0.1	-2%	-2	4	-1	-14%
44	Cn1c(=S)c2[nH]c(SCCN)nc2n(C)c1=O	-1.6	4%[15.4 µM]	?	-9	-30	10%
45	CCCCN(C(=O)/C=C/c1ccc(OCC(C)C)c(OCC)c1)c1c(N)n(CCC)c(=O)[nH]c1=O	0.7	19%	-1	-5	1	3%
46	CC(Oc1ccc(Cl)cc1Cl)c1ccnc2nc(N3CCOCC3)nn12 (configuration not stated)	-0.1	-7%	-1	13	0	-9%
47	Cn1c(=O)oc2cc(S(=O)(=O)NCc3ccncc3)ccc21	-0.7	8%	5	-1	-1	-7%
48	COCCNC(=O)C(OC(=O)CC1Sc2ccccc2NC1=O)c1ccccc1 (configuration not stated)	-2.6	0%	1	-11	4	4%

In another format: results already given
38: CCOc1ccc2nc(NC(=O)Nc3ccccc3)sc2c1
- D2 ag = -0.6
- gsp agonist = -2%
- Six1-Eya2 blk = -1
- D2 potentiator = 12
- CtBP-E1A inh = 0
- gsp antagonist = -16%
16: COc1ccc(C2=NN(CN3C(=O)C(=O)c4ccccc43)C(c3ccc(OC)cc3)C2)cc1 (configuration not stated)
- D2 ag = -8.9
- gsp agonist = -31%[inhibitor]
- Six1-Eya2 blk = -7
- D2 potentiator = -23
- CtBP-E1A inh = .
- gsp antagonist = -10%
12: CCC(C)N=CC1=C(O)C(C(=O)OC)C(C)(C)CC1=O (configuration not stated)
- D2 ag = -1.9
- gsp agonist = -53%[inhibitor]
- Six1-Eya2 blk = -4
- D2 potentiator = -21
- CtBP-E1A inh = 3
- gsp antagonist = 6%

Carrying on:
entry	SMILES	D2 ag	gsp agonist	Six1-Eya2 blk	D2 potentiator	CtBP-E1A inh	gsp antagonist
49	Cc1ccc(Nc2nc(=O)c3cccnc3s2)c(Br)c1	-2.0	9%[15.4 µM]	-2	-5	-3	-1%
50	COc1ccc(-c2nnn(CC(=O)NCc3cccs3)n2)cc1OC	0.1	11%	-1	10	5	-6%
51	COc1ccc(CN2CCN(C3CCC3)CC2CCO)cc1C (configuration not stated)	0.6	-64%[inhibitor]	-2	-19	.	10%
52	O=C(Nn1c(O)c(C=C2N=c3ccccc3=N2)sc1=S)c1ccccc1Cl	-5.3	8%	-21	4	-21	-26%
53	O=C(Nc1ccc(CN2CCOCC2)cc1)c1ccc(-c2cc(Cl)ccc2Cl)o1	-0.9	-3%	-16	0	-4	-14%
54	CCCCSc1nnc(-c2ccc(NC(=O)CCc3ccccc3)cc2)n1C	0.6	-25%	5	-6	0	4%
55	O=C1CSC(=S)N1	-3.6	.	-1	-6	9	4%
56	COc1cccc(C(=O)NC(C)C(c2cccs2)N2CCN(C)CC2)c1 (configuration not stated)	0.9	-10%	3	2	4	11%
57	CC1CN(Cc2ccccn2)CCC1=O (configuration not stated)	-1.1	-33%	1	-12	3	-10%
58	O=C(Nc1ccccc1N1CCOCC1)c1ccc2c(c1)OCO2	-6.3	-15%[15.4 µM]	2	-1	-13	-5%
59	Cc1ccc2nc(C)c(C(=O)N/N=C/c3ccc(N4CCOCC4)cc3)cc2c1	1.8	-14%[15.4 µM]	0	0	7	1%
